Source: PubChem (several laboratories)
Mtb hypoxia inh: reduces hypoxia-regulated biosensor signal in M. tuberculosis. M. tuberculosis hypoxia-regulated fluorescent reporter, fluorescence. fluorescence inhibition, % (test concentration not listed). 300,000 compounds, 0.1% hits. AID 1159583;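 active = 35 to 45% if threefold the growth effect, above 45% if 1.5-fold the growth effect; inactive = the rest, general growth blockers included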;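 also: wells of about 50 µL received 100 nL stock; 0% = vehicle wells and 100% = reference inhibitor wells; whole bacteria with a GFP reporter of the hypoxia response; strong numbers were not always called active; many hits fall short of the cut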
Sa RN4220 lethal: S. aureus RN4220 growth inhibition; OD600, 16 h; inhibition, % (test concentration not listed); 330,000 compounds, 0.33% hits;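 active = z-score of -3 or lower and OD600 up to 0.18 on both plates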;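 also: plate controls were untreated cells for no effect and reference antibiotic for full effect; stock transfer was 100 nL into about 80 µL; one replicate is shown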
ugtP null kill: growth inhibition of S. aureus ugtP deletion strain | S. aureus RN4220 ugtP deletion, OD600 growth, 16 h; some inactives read as strong as hits | growth inhibition, % (concentration not given with the values) | 330,000 compounds, 0.54% hits;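 active = z-score under -3 and OD600 up to 0.15 on both plates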;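 also: plate controls were untreated wells for no effect and antibiotic for full effect; wells of about 80 µL received 100 nL stock; the first replicate is given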
BJeLR viability: BJeLR cell viability loss; BJeLR (HRASV12) viability, CellTiter-Glo ATP luminescence, 48 h; reference of the scale not given here; inhibition, % (concentration not given with the values); 300,000 compounds, 0.17% hits;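 active = replicate mean above 50%; inconclusive = above 50% but judged a plate artefact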;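 also: 50 nL library stock added to about 25 µL; numbers are from one replicate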
Autofluor counter: flagged as autofluorescent in microsphere protease counterscreen; compound autofluorescence counterscreen, microsphere flow cytometry; active compounds read high; fluorescence intensity (no concentration beside the values); 360,000 compounds, 3.1% hits;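 active = at least 3 SD above the mean of all compounds, about 16000 in these data; inconclusive = too few beads counted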;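 also: 100 nL of 1 mM stock went into each well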
PrP 5UTR inh: inhibition of PrP 5' UTR reporter expression | 340,000 compounds, 0.35% hits | cell-based PrP 5' UTR mRNA reporter, plate reader | inhibition, % (concentration not given with the values);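 active = every replicate at 50% or more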;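 also: 0 = median of the neutral control wells; tested in H4 reporter cells; numbers are from one replicate; inactives centre near -14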
Mtb hypoxia inh growth: also measured in Mtb hypoxia inh; calls as there; growth inhibition, %; measured here: M. tuberculosis growth (absorbance);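 0% = vehicle and 100% = reference antibiotic; read after six days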
Active calls of the source: *; u = inconclusive; x = not tested or not shown.

Values run as follows: Mtb hypoxia inh, PrP 5UTR inh, BJeLR viability, Autofluor counter, Mtb hypoxia inh growth, ugtP null kill, Sa RN4220 lethal
CCNC(=S)/N=C(\N)Nc1nc(C)c2cc(C)ccc2n1
→ x, -71, 0, 5105, x, x, x
CCCN(CCC)CC(O)Cn1c2ccccc2c2ccccc21 (stereo unspecified)
→ 7, -7, 6, 4446, 14, 2, 0.5
COC(=O)c1ccc(C(C(=O)NC2CCCCC2)N(Cc2ccc(F)cc2)C(=O)Cc2cccs2)cc1 (stereo unspecified)
→ 1, -19, 18, 1345, 2, -12, 15
CC(C)CNC(=O)c1cc([N+](=O)[O-])ccc1N1CCCCC1
→ 8, -37, -1, 2372, 5, 9, 3.2
CCCOc1cccc(C2C(C(=O)c3cc4ccccc4o3)=C(O)C(=O)N2c2cc(C)on2)c1 (stereo unspecified)
→ -2, -20, 1, 5170, 6, 100*, 100*
Cc1cc(S(=O)(=O)N2CCN(c3ccccc3C)CC2)ccc1F
→ x, -12, 3, 4768, x, 33, 4.5
CC(=O)c1cccc(CN2CCCC(CCC(=O)NCc3ccc(F)c(F)c3)C2)c1 (stereo unspecified)
→ 19, -16, -2, 3054, -1, 17, 3.3
O=C(O)c1cc(NS(=O)(=O)c2ccc(NC3CCCCC3)c([N+](=O)[O-])c2)cc(C(=O)O)c1
→ 8, -25, 1, 4504, 7, -1, 7.1
COc1ccc(OC2C=CC(c3ccccc3)OC2COC(=O)CCC(C)=NOC(C)c2cn(C3COCC3O)nn2)cc1 (stereo unspecified)
→ 1, x, x, x, 7, 3, 6.3
CCN1C(=NCCOC)NC(c2ccccc2)C(C(=O)OC)C1C (stereo unspecified)
→ 6, x, x, x, 2, -10, 1.1

Reprinted from the part before: 2 compounds, followed by the next part.
Values run as follows: Mtb hypoxia inh, PrP 5UTR inh, BJeLR viability, Autofluor counter, Mtb hypoxia inh growth, ugtP null kill, Sa RN4220 lethal
COc1ccc(OC2C=CC(c3ccccc3)OC2COC(=O)CCC(C)=NOC(C)c2cn(C3COCC3O)nn2)cc1 (stereo unspecified)
→ 1, x, x, x, 7, 3, 6.3
CCN1C(=NCCOC)NC(c2ccccc2)C(C(=O)OC)C1C (stereo unspecified)
→ 6, x, x, x, 2, -10, 1.1
CC(C)CCN(Cc1ccco1)S(=O)(=O)c1csc(C(N)=O)c1
→ 0, -17, 12, 5345, -2, 6, 0.5
Cc1ccc2c(c1)C1(C)C(C(C)(C)N2C=O)C1(Cl)Cl (stereo unspecified)
→ 13, -4, 2, 3583, 1, 4, 8.2
Cn1cccc1/C=N/NC(=O)c1cc2ccccc2cc1O
→ x, -49, -4, 5754, x, x, x
COc1ccc(Cl)cc1NS(=O)(=O)c1ccc2c(c1)NC(=O)CCS2
→ -1, -8, 3, 5203, -14, 1, 12
CC(C)CC(COCc1cccc(Cl)c1)N1CCN(C(=O)c2ccc(C(F)(F)F)cc2)CCC1=O (stereo unspecified)
→ 0, -22, 5, 3426, 7, -7, -7.6
COCCNC(=O)c1cc(-c2ccccc2)n(CC2CC(c3ccc(OC)cc3)=NO2)n1 (stereo unspecified)
→ 3, 9, -6, 3742, 6, -4, 12
CC(Oc1ccc(Cl)cc1)C(=O)NCCCn1ccnc1 (stereo unspecified)
→ 1, -7, -7, 12995, -2, 2, 3.2
CN1CCN(c2ncnc3c2[nH]c2ccc(F)cc23)CC1
→ 3, -5, -9, 3173, -7, 0, -11
N#CC1=C(N)N(c2ccc(Cl)c(Cl)c2)C(=O)C1
→ 8, -19, -8, 3977, 15, 7, 1.0
Cc1ccc(C(=O)C2=C(O)C(=O)N(Cc3cccnc3)C2c2ccc(Cl)c(Cl)c2)o1 (stereo unspecified)
→ -7, 3, -1, 4474, -2, 4, 7.0

Values run as follows: Mtb hypoxia inh, PrP 5UTR inh, BJeLR viability, Autofluor counter, Mtb hypoxia inh growth, ugtP null kill, Sa RN4220 lethal
CC(C)OC(=O)C1C(=O)CC(C)(O)C(C(=O)OC(C)C)C1c1ccc(F)cc1 (stereo unspecified)
→ 9, -27, 6, 9815, 10, 9, 5.1
CN(CC(=O)Nc1cccc2ccccc12)C(=O)/C=C/c1cccs1
→ -8, -3, -24, 2583, 13, 2, -3.0
COC(=O)c1cccc(C(=O)N2CCCC(C(=O)c3cc(F)ccc3F)C2)c1 (stereo unspecified)
→ 13, -31, -5, 4809, 9, 7, 4.3
O=C1CCN(Cc2ccc(O)cc2)CCN1C(CO)Cc1ccccc1 (stereo unspecified)
→ 4, x, x, x, 5, 4, 6.4
COc1ccc(CNC(c2ccccc2)c2ccc(Cl)cc2)cc1 (stereo unspecified)
→ 9, -23, -3, 3753, 11, 30, 2.4
CC(C)C(=O)Nc1nnc(SCC(=O)NCc2ccco2)s1
→ -8, -25, -1, 2471, -3, 4, -1.3
Cc1cccc(C)c1NC(=O)N1C(C(=O)O)CSC1C(=O)O (stereo unspecified)
→ 17, -20, -15, 4352, 9, 12, 4.8
CCOC(=O)c1cn(CC)c2cc3c(cc2c1=O)OCO3
→ 18, -18, -2, 3810, 10, 3, 10
CC1CCC(NC(=O)CN2C(=O)NC3(CCCCC3C)C2=O)CC1 (stereo unspecified)
→ 7, -4, x, 6912, 1, 2, 0.5
CC(C)c1cc(C(=O)NNC(=S)NC2CCCCC2)cs1
→ -6, -22, -5, u, -5, -4, 1.4

Values run as follows: Mtb hypoxia inh, PrP 5UTR inh, BJeLR viability, Autofluor counter, Mtb hypoxia inh growth, ugtP null kill, Sa RN4220 lethal
CC(=O)Oc1ccccc1C(=O)N1CCN(S(=O)(=O)c2ccc3ccccc3c2)CC1
→ 8, -21, 9, 4008, 3, 7, 5.3
O=C(Nc1cc(Cl)ccc1O)C1CC(c2c(F)cccc2Cl)=NO1 (stereo unspecified)
→ 3, -16, 5, 4255, 7, -8, 4.5
COC(=O)c1cc(C(=O)N2CCN(c3ccccc3OC)CC2)cc([N+](=O)[O-])c1
→ 5, 42, 21, 2378, 12, -2, 4.1
CS(=O)(=O)N(CC(=O)N1CCCC1)c1ccc(Cl)cc1
→ 2, 0, 4, 3639, 1, 3, 4.7
NC(=S)N/N=C/c1ccccc1[N+](=O)[O-]
→ x, -31, -5, 3325, x, x, x
O=C(Nc1nnc(C(F)(F)F)s1)c1c(F)cccc1F
→ 9, -21, 5, 3834, 4, 42, 49
O=c1/c(=C/c2ccco2)sc2n1CN(c1cccc(Br)c1)CN=2
→ x, -20, -7, 3833, x, x, x
CN(C)/C=N/c1ncc(C(=O)c2ccc3ccccc3c2)s1
→ x, -10, 0, 23850*, x, x, x
CCCN1CCC(=NNc2ccc(S(N)(=O)=O)cc2[N+](=O)[O-])CC1
→ 8, -30, 1, 3826, 13, 3, 14
Cc1ccc2cc(C=O)c(N3CCOCC3)nc2c1C
→ 10, -7, -3, x, 1, 11, 5.1

Values run as follows: Mtb hypoxia inh, PrP 5UTR inh, BJeLR viability, Autofluor counter, Mtb hypoxia inh growth, ugtP null kill, Sa RN4220 lethal
COc1ccc(-n2c(NN)nc3sc4c(c3c2=O)CCCC4)cc1
→ 15, -14, 0, 4115, 11, 14, 7.2
COc1ccc(OC)c2sc(NC(=O)CCSc3ccccc3)nc12
→ 1, -4, 8, 4288, -2, 4, 0.8
CCc1nc(Nc2ccccc2O)c2oc3ccccc3c2n1
→ -3, -2, -7, 3720, -3, -9, 2.3
CCOC(=O)C(NC(=O)c1ccc(OC)cc1)(N1CCOCC1)C(F)(F)F (stereo unspecified)
→ 2, -32, -4, 9693, -4, 3, 22
CC(C)NCCCOc1ccc(Cl)cc1Br
→ x, -3, -5, 4358, x, -3, -0.7
COCC(=O)Nc1cc([N+](=O)[O-])ccc1OC
→ -2, -12, 1, 2528, 7, -3, 2.8
CCCSc1nc(SCC(=O)NCc2ccccc2)c2c3c(sc2n1)COC(C)(C)C3
→ -6, -7, -6, 4213, -1, 7, 1.5
O=C(NNC(=O)C1CCN(S(=O)(=O)c2ccccc2C(F)(F)F)CC1)c1ccccc1O
→ 3, -16, 11, 5507, -4, 9, 9.6
C=CCn1c(SC2CCOC2=O)nc2sc(CC)cc2c1=O (stereo unspecified)
→ x, -19, x, 2632, x, -7, -1.0
N#Cc1ccc(C23CC4(C2)[C@H](CN(CC2CCCCC2)[C@@H]4c2ccccc2)C3c2ccc(Cl)nc2)cc1 (stereo partly specified)
→ x, -15, -9, 5294, x, x, x

Values run as follows: Mtb hypoxia inh, PrP 5UTR inh, BJeLR viability, Autofluor counter, Mtb hypoxia inh growth, ugtP null kill, Sa RN4220 lethal
Cc1c(C(=O)N(C)C)c2ccc(Cl)cc2n1O
→ -8, -11, -7, 2040, -2, -1, 3.5
COc1cc2oc(=O)c(CC(=O)N3C[C@H]4C[C@@H](C3)c3cccc(=O)n3C4)c(C)c2cc1Cl
→ x, -22, x, 5281, x, -4, 2.7
CCC(=O)Nc1ccc(NC(=O)CSc2nnnn2-c2ccc(OC)cc2)cc1
→ -4, -11, 6, 3050, 0, 4, 3.2
CCOC(=O)CSc1nc2c(c(=O)[nH]c(=O)n2C)n1CCc1ccccc1
→ x, -20, -9, 4200, x, -10, 1.6
CC1(C(=O)O)CCC(C(=O)NNC(=O)c2ccccc2Cl)C1(C)C (stereo unspecified)
→ 9, x, -7, 4578, 2, 3, 3.4
N#CCCN1CCN(S(=O)(=O)c2ccc(S(=O)(=O)N3CCCC3)cc2)CC1
→ x, -18, 4, 6036, x, 3, 3.4
COCCn1cnc2c1c(=O)n(CC(=O)Nc1cc(C)on1)c(=O)n2Cc1ccccc1
→ x, 4, -4, 5518, x, -11, 4.0
CC(=C\C(=O)O)/C(=C/c1ccc(C)o1)C(=O)O
→ -1, -15, 10, 10606, 9, 1, -0.2
COc1ccc(C(=O)NC(=S)NNC(=O)c2ccc(NC(=O)C(C)C)cc2)cc1
→ -2, 1, 2, 2302, -4, 0, 21
COc1ccc(OC)c(NC(=O)c2nc(S(=O)(=O)Cc3ccccc3)ncc2Cl)c1
→ x, -13, 31, 5678, x, x, x

Of the compounds above, 2 contain an NH in an aromatic ring.
Values run as follows: Mtb hypoxia inh, PrP 5UTR inh, BJeLR viability, Autofluor counter, Mtb hypoxia inh growth, ugtP null kill, Sa RN4220 lethal
CN1CCN(c2ncnc3c2[nH]c2ccc(F)cc23)CC1
→ 3, -5, -9, 3173, -7, 0, -11
CCOC(=O)CSc1nc2c(c(=O)[nH]c(=O)n2C)n1CCc1ccccc1
→ x, -20, -9, 4200, x, -10, 1.6

Further results
Values run as follows: Mtb hypoxia inh, PrP 5UTR inh, BJeLR viability, Autofluor counter, Mtb hypoxia inh growth, ugtP null kill, Sa RN4220 lethal
O=C(Nc1ccccc1Br)C1CCN(S(=O)(=O)c2cccs2)CC1
→ 1, -11, x, 3337, 4, 3, -2.5
COc1ccc(-c2[nH]ncc2CNCC(C)(C)N2CCOCC2)cc1F
→ -8, -15, 0, 5239, 9, 8, 2.2
Cc1ccc2c(c1)sc1ncc(NC(=O)c3ccc(F)cc3)c(=O)n12
→ -2, x, 2, x, -9, 2, -1.3
Cc1cc(C)n(CCSCC(=O)O)n1
→ -4, -22, -1, 6991, 1, 18, 2.6
CCCn1nnc(NC(=O)c2ccco2)n1
→ -2, 4, 8, 5408, -4, 3, 0.4
Nc1c(C(=O)Nc2ccccc2)c2nc3ccccc3nc2n1-c1ccc(O)cc1
→ 9, 3, -18, 3114, 11, 30, -15
CCN(CC)S(=O)(=O)c1cc(C(=O)N=c2sccn2C)ccc1OC
→ 10, 0, 2, 5657, 4, 2, 3.2
CC(C)(C)c1ccc(S(=O)(=O)N2CCSC2)cc1
→ -10, -28, -14, 2138, 0, -5, -0.8
Cc1ccccc1C(=O)NNC(=O)CN1C(=O)c2ccccc2C1=O
→ x, -15, 0, 2785, x, x, x
COc1cc(CC(NC(C)=O)C(=O)NC2CCN(C(=O)c3ccc(C)cc3)CC2)cc(OC)c1 (stereo unspecified)
→ 8, -15, -12, 2861, 3, 2, 3.6
CCOC(=O)C1=CN(Cc2cccc(F)c2)S(=O)(=O)N(C)C1c1ccc(F)c(Cl)c1 (stereo unspecified)
→ 5, -6, x, 3773, -5, -13, 1.9
O=S(=O)(Nc1ccccc1)c1ccc(Oc2ncc(C(F)(F)F)cc2Cl)cc1
→ 4, -4, -1, 8126, 5, 4, -7.3
